Cruzain inh noDet – inhibitors of Trypanosoma cruzi cruzain without detergent | P25779 | purified cruzain, Z-FR-AMC fluorescence, no detergent | Potency, µM, for inactives: max response, negative = inhibition, actives largely listed as inhibitors | hit rate 2.3% among 200,000 | AID 1476;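 note: plate controls were enzyme without inhibitor for no effect and buffer without enzyme for full effect; nearly all actives have a fitted effect of over 40% in size; top concentration of the series not given in the record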
Target sequence (P25779 123-467 limits assumed): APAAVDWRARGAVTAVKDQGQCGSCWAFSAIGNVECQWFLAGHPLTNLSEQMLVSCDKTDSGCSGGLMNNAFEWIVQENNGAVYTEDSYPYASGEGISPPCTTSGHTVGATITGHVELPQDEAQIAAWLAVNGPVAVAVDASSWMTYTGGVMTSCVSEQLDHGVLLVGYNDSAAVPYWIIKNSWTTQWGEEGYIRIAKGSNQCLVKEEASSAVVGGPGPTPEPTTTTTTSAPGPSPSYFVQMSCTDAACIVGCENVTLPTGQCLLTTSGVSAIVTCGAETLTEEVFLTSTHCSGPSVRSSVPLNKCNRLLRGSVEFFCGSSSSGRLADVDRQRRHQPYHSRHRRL
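Detergent-free condition (0.00005% Triton X-100) in acetate buffer pH 5.5 with DTT. 1.5 nM enzyme and compound were pre-mixed 15 min, then 2 uM Z-FR-AMC substrate added; reaction progress from fluorescence change between first and third reads (60 s).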
MARV entry inh – blocks Marburg virus binding to or entry into cells; hit rate 1.8% among 300,000; AID 540276; Potency, µM (highest dose often 37.8 µM), for the others: top-dose activity change, negative = inhibition, usual class: inhibitors; Marburg virus pseudotyped entry inhibition, cell reporter; control for the full effect not named in the record; about a third of the inactives were read at about 46 µM; active = well fitted inhibition curve with a large enough effect; inconclusive = small, poorly fitted or top-dose-only effect, or effect the other way; inactive = flat fitted curve, though single readings scatter; tested in HEK293 cells; about a fifth of its hits are not listed in these tables; note: % is set by controls: 0 for no effect and ±100 for the full control effect; luciferase read-out
Cruzain inh Det – blocks cruzain activity in presence of Triton detergent | hit rate 0.43% among 200,000 | AID 1478 | purified cruzain, Z-FR-AMC fluorescence, 0.01% Triton | P25779 | Potency, µM, inactives show max response, negative = inhibition, actives largely listed as inhibitors;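 note: plate controls were neutral wells for no effect and buffer without enzyme for full effect; nearly all actives have a fitted effect of over 40% in size; top concentration of the series not given in the record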
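Detergent-containing arm of a paired screen for aggregation-based inhibition: 0.01% Triton X-100 present. Cruzain at 1.5 nM cleaved 2 uM Z-FR-AMC at pH 5.5 with 5 mM DTT; AMC fluorescence gain over 60 s measured activity.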
SARS PLpro yeast – blocks SARS-CoV papain-like protease in a yeast assay; S. cerevisiae expressing SARS-CoV PLpro, growth rescue; control for the full effect not named in the record; Potency, µM (series often up to 32.9 µM), without a hit: top-dose activity, positive = growth rescue; hit rate 0.19% among 330,000; active means well fitted rising curve with a large enough effect; inconclusive means small, poorly fitted or top-dose-only effect; inactive means no such curve, though single readings can be large or run the other way; note: 0% is about no effect; nearly all actives have a fitted effect of over 55% in size; growth read by luminescence after 48 h
RE007 growth inh – less growth of the S. pombe RE007 Vpr strain; S. pombe RE007 Vpr strain, BacTiter-Glo ATP luminescence, 24 h; control for the full effect not named in the record; Potency, µM (doses to about 92.2 µM), for inactives: at the top dose activity change, negative = less growth; hit rate 0.21% among 360,000; active = well fitted falling curve with a large enough effect; inconclusive = small, poorly fitted or top-dose-only effect; inactive = no such curve, though single readings can be large or run the other way;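 note: % is set by controls: 0 for no effect and ±100 for the full control effect; nearly all actives have a fitted effect of over 50% in size; the assay follows cell death caused by Vpr and the record does not say whether a fall means rescue or toxicity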
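Fission yeast strain RE007, carrying one chromosomally integrated HIV-1 vpr copy, was seeded at OD 0.01 in PMG+AL medium with 23 nL pinned compound. After 24 h at 30 °C and 99% humidity, viability was read by BacTiter-Glo luminescence.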
NS1 function inh – influenza NS1 inhibition. hit rate 0.4% among 270,000. Potency, µM (titrated, usually from 46.1 µM), for the others: at the highest dose activity, positive = more growth. S. cerevisiae slowed by influenza A NS1, growth recovery by OD600; active means well fitted rising curve with a large enough effect; inconclusive means small, poorly fitted or top-dose-only effect; inactive means no such curve, though single readings can be large or run the other way; note: nearly all actives have a fitted effect of over 50% in size
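OD600 was taken as the measure of yeast growth restored by compound in an NS1-expressing S. cerevisiae strain. Cells had been washed out of glucose medium and diluted 1:100 into galactose -URA medium, pH 6.0.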
Lassa entry inh – blocks Lassa virus binding to or entry into cells. Lassa virus pseudotype entry inhibition, cell reporter; control for the full effect not named in the record. Potency, µM (highest dose often 37.9 µM), for inactives: at the highest dose activity change, negative = inhibition, hits mostly inhibitors. hit rate 1.2% among 300,000. AID 540256; active means well fitted inhibition curve with a large enough effect; inconclusive means small, poorly fitted or top-dose-only effect, or effect the other way; inactive means flat fitted curve, though single readings scatter; tested in HEK293 cells; note: % is set by controls: 0 for no effect and ±100 for the full control effect; nearly all actives have a fitted effect of over 50% in size; luciferase read-out
2A StopGo – lowers the luciferase signal of an FMDV 2A StopGo reporter. Potency, µM (highest dose often 57.9 µM), for the others: top-dose signal change, negative = less light. hit rate 1.2% among 410,000. AID 1159524. human cells with a luciferase reporter of 2A StopGo recoding; control for the full effect not named in the record; active = well fitted falling curve with a large enough effect; inconclusive = small, poorly fitted or top-dose-only effect; inactive = no such curve, though single readings can be large or run the other way; tested in HEK293T cells; note: % is set by controls: 0 for no effect and ±100 for the full control effect; nearly all actives have a fitted effect of over 45% in size; luciferase light after 4 h
* marks the source's active call; other numbers are inactive results; [ ] = another dose, or the depositor's remark. Unless noted, calls come from the whole dose curve; as a rule, active = well fitted curve in the direction sought with a large enough effect; inconclusive = small, poorly fitted or top-dose-only effect, or another doubt; inactive = no such curve, though single readings can be large; an effect the other way counts as inactive or inconclusive. Potency is the fitted concentration of half-maximal effect.

What do the screens show for `Cc1cccc(CN(CC(=O)N/N=C/c2cccs2)S(=O)(=O)c2ccc(Cl)cc2)c1`?
Cruzain inh noDet: -3%; Cruzain inh Det: 2.0%; SARS PLpro yeast: -2%; RE007 growth inh: -3%; NS1 function inh: 8.9µM*; Lassa entry inh: inconclusive; 2A StopGo: inconclusive

Results for c1ccc(Nc2nc(NCC3CCCO3)c3ccccc3n2)cc1 (stereo not given) ?
MARV entry inh: inconclusive; SARS PLpro yeast: -3%; RE007 growth inh: -8%; Lassa entry inh: inconclusive; 2A StopGo: 28µM*

How did CNC(=O)C1CCC(Cn2c(=O)c3sccc3n(CC(=O)Nc3ccc(C)c(F)c3)c2=O)CC1 (stereo not given) do in these assays?
Cruzain inh noDet: inconclusive; Cruzain inh Det: -1.7%; Lassa entry inh: 23%[46.1 µM]; 2A StopGo: -19%

Results for O=C(NCCc1cccc(C(F)(F)F)c1)C1CCC(=O)N(C2CC2)C1 (stereo not given) ?
MARV entry inh: 28%; SARS PLpro yeast: 2%; RE007 growth inh: -8%; NS1 function inh: 12%; Lassa entry inh: inconclusive; 2A StopGo: 0%

What do the screens show for `Cc1ccc2nc(NC(=S)NC(=O)c3ccco3)sc2c1`?
Cruzain inh noDet: -20%; MARV entry inh: 4%; Cruzain inh Det: -14%; SARS PLpro yeast: -4%; RE007 growth inh: 12%; NS1 function inh: 20%; Lassa entry inh: inconclusive; 2A StopGo: 42%[activator]

Results for O=C(CCC1CCCCC1)NCc1ccc(F)cc1 ?
Cruzain inh noDet: -7%; MARV entry inh: -17%; Cruzain inh Det: -1.1%; SARS PLpro yeast: 7%; RE007 growth inh: -3%; NS1 function inh: -2%; Lassa entry inh: 20%; 2A StopGo: 24%

Results for CCCCCCC1(C)NC(=S)N(c2ccccc2)N1 (stereo not given) ?
MARV entry inh: -22%[46.1 µM]; SARS PLpro yeast: -3%; RE007 growth inh: 7%; Lassa entry inh: -22%; 2A StopGo: 4%

What do the screens show for `CCO[C@H]1OC(C(=O)NCc2nc3ccccc3[nH]2)=C[C@@H](C)[C@@H]1CCCO`?
SARS PLpro yeast: 2%; RE007 growth inh: -16%; NS1 function inh: -2%; 2A StopGo: -12%

How did O=C(CCSc1nnc(-c2ccco2)o1)Nc1ccc(Cl)cc1 do in these assays?
Cruzain inh noDet: -7%; MARV entry inh: -3%; Cruzain inh Det: -1.8%; SARS PLpro yeast: 0%; RE007 growth inh: 19%; NS1 function inh: -14%; Lassa entry inh: -17%; 2A StopGo: -27%

How did COc1cc(OC)c(-c2nn3c(C4CCCCC4)nnc3s2)cc1OC do in these assays?
Cruzain inh noDet: inconclusive; MARV entry inh: -20%; Cruzain inh Det: -20%; SARS PLpro yeast: 1%; RE007 growth inh: -3%; NS1 function inh: -78%; Lassa entry inh: -5%; 2A StopGo: -12%

What do the screens show for `CCOc1ccc2nc(NC(=O)COc3ccc(N(C)S(=O)(=O)c4ccc(C)cc4)cc3)sc2c1`?
MARV entry inh: 2%[46.1 µM]; SARS PLpro yeast: 0%; RE007 growth inh: 3%; NS1 function inh: 1%; Lassa entry inh: 11%; 2A StopGo: inconclusive

What do the screens show for `COc1cccc(C(=O)Oc2cc3c4c(c2)C(C)=CC(C)(C)N4C(=O)C3=O)c1`?
Cruzain inh noDet: 14%; MARV entry inh: inconclusive; Cruzain inh Det: -3.8%; SARS PLpro yeast: -27%; RE007 growth inh: 7%; NS1 function inh: -1%; Lassa entry inh: inconclusive

How did O=C(CSc1ccc(-c2ccco2)nn1)NCCc1ccccc1 do in these assays?
MARV entry inh: -14%[46.1 µM]; SARS PLpro yeast: -3%; RE007 growth inh: 0%; Lassa entry inh: -1%[46.1 µM]; 2A StopGo: 4%

How did O=C(c1cc(-c2cccc(Cl)c2)on1)N1CCCCC1 do in these assays?
Cruzain inh noDet: 10%; MARV entry inh: inconclusive; Cruzain inh Det: 1.8%; Lassa entry inh: 2%[46.1 µM]; 2A StopGo: 42%[activator]

What do the screens show for `O=C(O)/C(=C\c1cccc(F)c1)c1ccc(S(=O)(=O)N2CCCCC2)s1`?
Cruzain inh noDet: 17%; MARV entry inh: 9%; Cruzain inh Det: -18%; SARS PLpro yeast: 19%; RE007 growth inh: -10%; NS1 function inh: 3%; Lassa entry inh: -1%; 2A StopGo: -4%

How did COCCn1c(SCCCC(=O)c2ccc(Br)cc2)nnc1-c1ccncc1 do in these assays?
Cruzain inh noDet: 8%; MARV entry inh: inconclusive; Cruzain inh Det: 1.7%; SARS PLpro yeast: -8%; RE007 growth inh: -4%; NS1 function inh: -5%; Lassa entry inh: inconclusive; 2A StopGo: inconclusive

What do the screens show for `CCCN(CCC)CCCn1c(=O)[nH]c2ccccc21`?
MARV entry inh: -1%[46.1 µM]; SARS PLpro yeast: 0%; RE007 growth inh: -9%; Lassa entry inh: -4%; 2A StopGo: 4%

How did Cc1ccccc1NC(=S)N/N=C/C(C)c1ccccc1 (stereo not given) do in these assays?
MARV entry inh: -24%[46.1 µM]; SARS PLpro yeast: -1%; RE007 growth inh: 1%; Lassa entry inh: inconclusive; 2A StopGo: 0%

How did Cn1c(CNC(=O)c2ccccc2F)nnc1SCc1ccc(F)cc1 do in these assays?
Cruzain inh noDet: -2%; MARV entry inh: -2%; Cruzain inh Det: 3.6%; SARS PLpro yeast: -1%; RE007 growth inh: -2%; NS1 function inh: inconclusive; Lassa entry inh: -1%; 2A StopGo: -11%

What do the screens show for `COc1ccc(Cc2nnc(NC(=O)C3CC(=O)N(c4ccccc4)C3)s2)cc1OC` (stereo not given)?
MARV entry inh: 9%; SARS PLpro yeast: -1%; RE007 growth inh: -4%; NS1 function inh: -8%; Lassa entry inh: 0%; 2A StopGo: -17%

Results for CC(C)[C@@H]1NC(=O)c2cc([N+](=O)[O-])cc(I)c2NCCC[C@@H](C(=O)NC(CC(=O)O)C(N)=O)NC(=O)[C@H](CO)NC1=O (stereo not given in full) ?
Cruzain inh noDet: -1%; MARV entry inh: 36%; Cruzain inh Det: -1.1%; SARS PLpro yeast: -7%; RE007 growth inh: 2%; NS1 function inh: 19%; Lassa entry inh: 0%; 2A StopGo: -4%

How did O=C(O)c1ccc(NC(=O)c2ccc(COc3ccc(Cl)cc3)o2)cc1 do in these assays?
SARS PLpro yeast: 1%; RE007 growth inh: 7%; NS1 function inh: 0%; 2A StopGo: -27%

What do the screens show for `CCOC(=O)C1=C(c2ccccc2)Nc2ncnn2C1c1ccc(C(=O)O)cc1` (stereo not given)?
MARV entry inh: 0%[46.1 µM]; SARS PLpro yeast: 2%; RE007 growth inh: 17%; NS1 function inh: 8%; Lassa entry inh: 6%; 2A StopGo: -7%

How did CC(Oc1ccc2c(c1)oc(=O)c1ccccc12)C(=O)NC(Cc1c[nH]c2ccc(O)cc12)C(=O)O (stereo not given) do in these assays?
SARS PLpro yeast: 11%; RE007 growth inh: 4%; NS1 function inh: inconclusive; 2A StopGo: -17%

How did Cc1nn(CCOc2ccccc2Cl)c(C)c1[N+](=O)[O-] do in these assays?
MARV entry inh: 1%; SARS PLpro yeast: 1%; RE007 growth inh: -6%; NS1 function inh: -6%; Lassa entry inh: 0%; 2A StopGo: 23%

What do the screens show for `COc1ccc(C)cc1NC(=O)COC(=O)c1ccccc1SCC(=O)N1CCCC1`?
MARV entry inh: -10%; SARS PLpro yeast: -10%; RE007 growth inh: -3%; Lassa entry inh: -7%; 2A StopGo: 4%

Results for COc1ccc(CN2C(=O)CC(C(=O)NCCc3ccc(S(N)(=O)=O)cc3)SC2=Nc2ccccc2)cc1 (stereo not given) ?
MARV entry inh: -29%; SARS PLpro yeast: 0%; RE007 growth inh: 0%; NS1 function inh: -20%; Lassa entry inh: inconclusive; 2A StopGo: -10%

What do the screens show for `Cc1c(C(=O)NCc2ccc(F)cc2)c(-c2ccccc2)nn1-c1ccccc1`?
Cruzain inh noDet: -2%; MARV entry inh: -2%; Cruzain inh Det: 1.9%; SARS PLpro yeast: -3%; RE007 growth inh: 2%; NS1 function inh: 6%; Lassa entry inh: -9%; 2A StopGo: -22%

How did COCC1CCN(Cc2cn(Cc3ccccc3)nc2-c2cc3ccccc3o2)CC1 do in these assays?
MARV entry inh: inconclusive; SARS PLpro yeast: 0%; RE007 growth inh: 5%; NS1 function inh: 2%; Lassa entry inh: inconclusive; 2A StopGo: -5%

Results for NC(=S)N=Nc1c(O)n(CCCl)c2ccc(Br)cc12 ?
MARV entry inh: -21%; SARS PLpro yeast: 0%; RE007 growth inh: 1%; NS1 function inh: -3%; Lassa entry inh: -15%; 2A StopGo: -18%

What do the screens show for `Cc1ccc(NC(=O)CCNC(=O)c2ccco2)cc1F`?
MARV entry inh: -5%; SARS PLpro yeast: 2%; RE007 growth inh: 0%; Lassa entry inh: 3%; 2A StopGo: 27%

What do the screens show for `Cc1cc(C)c(C#N)c(SCC(=O)c2ccc(Cl)cc2Cl)n1`?
Cruzain inh noDet: -1%; MARV entry inh: inconclusive; Cruzain inh Det: -4.0%; SARS PLpro yeast: -9%; RE007 growth inh: -10%; NS1 function inh: -6%; Lassa entry inh: inconclusive

What do the screens show for `O=C(Nc1ccc(OC(F)(F)F)cc1)c1cc2ccccn2n1`?
Cruzain inh noDet: 25µM*; Cruzain inh Det: -2.1%; Lassa entry inh: 28%[46.1 µM]; 2A StopGo: -28%

An excerpt from above in order of length of the SMILES, falling:
What do the screens show for `COc1ccc(C)cc1NC(=O)COC(=O)c1ccccc1SCC(=O)N1CCCC1`?
MARV entry inh: -10%; SARS PLpro yeast: -10%; RE007 growth inh: -3%; Lassa entry inh: -7%; 2A StopGo: 4%

How did COCC1CCN(Cc2cn(Cc3ccccc3)nc2-c2cc3ccccc3o2)CC1 do in these assays?
MARV entry inh: inconclusive; SARS PLpro yeast: 0%; RE007 growth inh: 5%; NS1 function inh: 2%; Lassa entry inh: inconclusive; 2A StopGo: -5%

Results for NC(=S)N=Nc1c(O)n(CCCl)c2ccc(Br)cc12 ?
MARV entry inh: -21%; SARS PLpro yeast: 0%; RE007 growth inh: 1%; NS1 function inh: -3%; Lassa entry inh: -15%; 2A StopGo: -18%
